Resorufin fluor – compound fluoresces in the resorufin spectral region | Compound fluorescence, resorufin region 547/598 nm, buffer; active compounds read high | 59,000 compounds, 0.04% hits | max dye-equivalent concentration, M; active = above 10 nM dye equivalent; inconclusive = 1 to 10 nM; inactive = 1 nM or less; a few of its hits are not listed in these tables; note: highest value over a series up to 38 µM
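Compounds in 100 mM Tris, pH 8.0, incubated 15 min at room temperature, then fluorescence read at 547 nm excitation/598 nm emission. Signal converted to dye-equivalent concentration via an on-plate six-point resorufin standard curve, per compound concentration.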
AID923 – qHTS Assay for Allosteric/Competitive Inhibitors of Caspase-1: Spectroscopic Profiling in AFC Spectral Region | compound fluorescence, AFC spectral region (405/520 nm); almost no hit is shown here | Potency, µM (doses to about 57.5 µM), for the others: at the top dose fluorescence increase, hits mostly activators | 75,000 compounds, 1.1% hits | AID 923, 2007; active = well fitted activation curve with a large enough effect; inconclusive = small, poorly fitted or top-dose-only effect;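 note: potency is the fitted concentration of half-maximal effect; 0% is about no effect; scaled to a free AFC standard on each plate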
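Baseline compound fluorescence (AFC region, 405 nm ex/520 nm em) taken from the intercept of kinetic reads with 50 nM caspase-1 and 5 uM Ac-WEHD-AFC; normalized to an on-plate AFC standard curve; compounds titrated up to 57 uM.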
A647 autofl – A647 region autofluorescence | Compound fluorescence, A647 channel (570/671 nm), Tris buffer | max dye-equivalent concentration, M | 59,000 tested, under 10 active; active means above 1 µM dye equivalent; inconclusive means 0.1 to 1 µM; inactive means 0.1 µM or less;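 note: values scaled relative to a standard on each plate; highest value over a series up to 38 µM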
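Tris 100 mM pH 8.0; cpd + A647 stds pin-transferred; 15 min RT; CCD imager, ex 570/em 671. Output = A647-equivalent conc. per cpd conc.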
A488 autofl – A488 region autofluorescence | compound autofluorescence, A488 spectral region, dye equivalency; active compounds read high | max dye equivalency, M | 59,000 compounds, 0.1% hits | AID 591; active = above 10 nM dye equivalent; inconclusive = 1 to 10 nM; inactive = 1 nM or less; about half of its hits are not listed in these tables;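 note: highest value over a series up to 38 µM; compound alone in buffer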
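Read-out: relative fluorescence at 480/540 nm, expressed as Alexa 488 dye-equivalent concentration from a six-point A488 standard included per plate. Conditions: 100 mM Tris, pH 8.0; 15 min incubation, room temperature.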
TSHR ag – agonists of human thyroid stimulating hormone receptor; P16473; HEK293-CNG-TSHR cells (CNG channel as cAMP sensor), membrane potential dye, cAMP; Potency, µM (highest dose often 57.1 µM), for inactives: at the top dose activation, most hits filed as activators; 73,000 compounds, 0.48% hits; active = well fitted activation curve of enough size with the parental cells flat; inconclusive = any curve in the parental cells; inactive = parental cells flat and receptor cells flat or falling; note: potency is the fitted concentration of half-maximal effect; % of control where 0% means no effect; weak receptor curves with flat parental cells got no call and are not listed
Target sequence (P16473 whole entry, looked up): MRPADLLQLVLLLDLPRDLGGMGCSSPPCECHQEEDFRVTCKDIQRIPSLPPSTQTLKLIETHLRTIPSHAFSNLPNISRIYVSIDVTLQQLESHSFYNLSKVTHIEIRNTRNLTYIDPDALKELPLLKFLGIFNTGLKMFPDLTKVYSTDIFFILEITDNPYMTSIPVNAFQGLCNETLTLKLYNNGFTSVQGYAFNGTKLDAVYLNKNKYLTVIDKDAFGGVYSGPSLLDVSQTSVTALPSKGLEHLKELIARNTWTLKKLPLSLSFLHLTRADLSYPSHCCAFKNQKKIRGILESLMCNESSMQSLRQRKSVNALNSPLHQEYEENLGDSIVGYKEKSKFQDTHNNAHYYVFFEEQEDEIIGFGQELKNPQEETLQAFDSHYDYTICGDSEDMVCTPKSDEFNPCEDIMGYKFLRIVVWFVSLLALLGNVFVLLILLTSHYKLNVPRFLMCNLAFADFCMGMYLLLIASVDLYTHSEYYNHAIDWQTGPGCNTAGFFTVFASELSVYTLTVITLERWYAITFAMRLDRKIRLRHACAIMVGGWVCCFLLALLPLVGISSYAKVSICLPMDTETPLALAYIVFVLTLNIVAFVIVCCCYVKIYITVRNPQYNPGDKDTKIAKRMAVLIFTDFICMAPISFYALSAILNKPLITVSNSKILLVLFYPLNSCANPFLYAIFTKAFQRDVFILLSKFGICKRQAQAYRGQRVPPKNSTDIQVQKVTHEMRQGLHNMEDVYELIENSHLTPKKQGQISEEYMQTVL
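HEK 293 cells stably expressing TSHR and a modified CNG channel, with CNG-only parental cells as counterscreen, were preloaded 60 min at room temperature with membrane potential dye containing 100 uM RO 20-1724. Compound exposure was 30 min, and depolarization was read as fluorescence at 590 nm.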
Starred values were filed as active, the others as inactive; i = inactive; u = inconclusive; x = no result given; & = joins results of further samples; [ ] = remark or other dose. A portion of the library. The share of hits here may be higher or lower than overall.

SMILES	Resorufin fluor	AID923	A647 autofl	A488 autofl	TSHR ag
O=C(NC1CCCC1)C(c1ccc(Cl)cc1)N1CCOCC1 (stereo not drawn)	x	-1.9%	x	x	25.9%
C/C(N)=C(/C#N)C(=O)COC(=O)CC1CCCC1	i	-0.5%	2.53e-08	i	-7.0%
O=C(CCN1CCN(CCO)CC1)Nc1ccc(F)c(F)c1	x	-0.3%	x	x	-5.2%[11.4 µM]
CCOC(=O)N1CCC(NC(=O)c2ccc3c(c2)ncn3C2CCCC2)CC1	i	-1.2%	4.9e-09	i	-0.2%
COc1cc(C(c2nnnn2C(C)(C)C)N2CCN(C)CC2)cc(OC)c1OC (stereo not drawn)	i	0.2%	1.72e-08	i	-1.7%
Nn1c(SCC(=O)NCCC2=CCCCC2)nnc1C1CCCCC1	i	-1.1%	1e-09	i	u
CCOc1ccc(-c2noc(-c3ccncc3)n2)cc1OCC	i	-1.4%	2.7e-09	i	-7.8%
O=C(CSC1CCCCC1)N1CCN(c2ccccc2)CC1	i	-3.0%	1.77e-08	i	21.3%
O=C(NC1CCCC1)c1ccc(S(=O)(=O)N2CCCC2)cc1	i	0.0%	1e-09	i	0.6%
Cc1cccc(-n2ncc3c(N4CCCC4)ncnc32)c1	i	3.6%	7.6e-09	i	-2.2%
Cn1c(=O)n(CCN2CCOCC2)c(=O)c2c1nc1n2CCN1c1ccccc1	i	-1.5%	7.2e-09	i	-5.0%[11.4 µM]
Cc1sc2nc(SCC(=O)N3CCCCC3)[nH]c(=O)c2c1C	i	1.6%	1.34e-08	i	13.2%
COc1ccc(-c2cc(C(F)(F)F)n3nc(C(=O)N4CCCC4)cc3n2)cc1	x	0.0%	x	x	-10.6%
Clc1ccc(CSc2nnc(-c3ccncc3)o2)c(Cl)c1	i	1.3%	2.3e-09	i	u
O=C(O)c1ccc(CSc2n[nH]c(-c3ccco3)n2)cc1	i	0.0%	3.4e-09	i	5.1%
CCSc1nc2sc3c(c2c2nnc(SCC(=O)NCc4ccco4)n12)CCCC3	i	x	1e-09	i	x
Cc1cc(NS(=O)(=O)c2ccc(NC(=O)Nc3ccccc3)cc2)no1	x	-0.2%	x	x	-4.2%
CCC1CCCCN1C(=O)c1nn2cccnc2c1Cl (stereo not drawn)	i	-0.9%	9.4e-09	i	-9.2%
O=C(c1cc(-c2ccc3c(c2)OCO3)on1)N1CCN(c2ccccc2)CC1	i	0.2%	1.93e-08	i	u
Cc1cc(C)cc(-n2nnc(C(=O)NCc3ccc4c(c3)OCO4)c2N)c1	i	0.8%	1.1e-09	i	4.5%
CCOc1ccccc1OCC(=O)Nc1ccc(S(=O)(=O)Nc2ncccn2)cc1	i	0.7%	1e-09	i	-3.4%
COc1ccccc1-c1cncnc1NCc1cnc(C)cn1	i	2.0%	1e-09	i	u
COC(=O)c1ccccc1NC(=O)CSc1nc(N)cc(N)n1	x	1.1%	x	x	4.4%
O=S(=O)(c1ccc(F)cc1)N1CCN(CC(O)COCc2cccs2)CC1 (stereo not drawn)	i	-0.4%	1e-09	i	-1.7%

5 consecutive records out of the list so far, for reference:
SMILES	Resorufin fluor	AID923	A647 autofl	A488 autofl	TSHR ag
Cc1cc(C)cc(-n2nnc(C(=O)NCc3ccc4c(c3)OCO4)c2N)c1	i	0.8%	1.1e-09	i	4.5%
CCOc1ccccc1OCC(=O)Nc1ccc(S(=O)(=O)Nc2ncccn2)cc1	i	0.7%	1e-09	i	-3.4%
COc1ccccc1-c1cncnc1NCc1cnc(C)cn1	i	2.0%	1e-09	i	u
COC(=O)c1ccccc1NC(=O)CSc1nc(N)cc(N)n1	x	1.1%	x	x	4.4%
O=S(=O)(c1ccc(F)cc1)N1CCN(CC(O)COCc2cccs2)CC1 (stereo not drawn)	i	-0.4%	1e-09	i	-1.7%

Later entries
SMILES	Resorufin fluor	AID923	A647 autofl	A488 autofl	TSHR ag
CC1(C)CC(=O)C2=C(C1)OC(N)=C(C#N)C21C(=O)N2CCCc3cccc1c32 (stereo not drawn)	i	1.2%	2.36e-08	i	4.1%
COCCn1cc(C(=O)N2CCN(C)CC2)c2c3ccccc3n(C)c2c1=O	i	1.0%	1e-09	i	0.8%
Cc1cccc(NC(=O)Nc2cccc(F)c2)n1	x	-0.5%	x	x	26.6%
CC(=O)OC1CC(C)N(C(=O)c2ccccc2)c2ccc(C)cc21 (stereo not drawn)	i	0.7%	2.4e-09	i	u
Cc1cccc(OCC(=O)N2CCC(N3CCOCC3)CC2)c1	i	x	1e-09	i	x
O=C(NCc1cccnc1)NC1(C(F)(F)F)Oc2ccccc2O1	i	1.3%	2.4e-09	i	6.8%
O=C(c1cnccn1)N1CCC[C@@]2(CCN(c3ccccc3)C2)C1	i	5.9%	4.2e-09	i	7.4%
CCOC(=O)C1=C(C)NC(=O)NC1C (stereo not drawn)	i	-3.0%&-0.9%	2.5e-09&2.19e-08	i	3.8%&2.0%
CC12CCC(=O)N1c1c(sc3nc(N4CCOCC4)c4c(c13)CCCC4)C(=O)N2 (stereo not drawn)	i	x	1.4e-09	i	x
O=C(Nc1cccc(-c2nc3ccccc3[nH]2)c1)c1cccc(NC(=O)c2ccco2)c1	i	-1.3%	1e-09	i	0.4%
c1ccc(N2CCOCC2)c(Nc2nc3ccccc3n3cnnc23)c1	x	0.1%	x	x	-4.3%
CCn1c(SCC(=O)Nc2ccccc2OC)nnc1-c1cnccn1	i	-1.7%	7.6e-09	i	22.3%
CC(=O)C1=C(O)C(=O)N(Cc2ccccc2)C1c1ccco1 (stereo not drawn)	i	-0.6%	1.29e-08	i	-3.6%
CCOC(=O)c1cnc(Nc2ccc(OCC)cc2)nc1C	i	-0.9%	2.64e-08	i	2.4%
CC1(C)CC(=O)C2=C(C1)NC(Nc1nc3ccccc3o1)=NC21CCCC1	i	-1.4%	6.7e-09	i	x
O=C(CN1CCN(c2cccc(Cl)c2)CC1)N1CCCC1	i	0.0%	1e-09	i	x
C=CCSc1nc2nc(C)cc(C)n2n1	i	0.6%	3.12e-08	i	2.2%[11.4 µM]
Cc1ccnc(NC(=O)C2CCC(CNc3c(N4CCCC4)c(=O)c3=O)CC2)c1 (stereo not drawn)	x	-2.5%	x	x	10.3%
Cc1ccc(S(=O)(=O)NCCCNC(=O)N2CCOCC2)cc1	i	-1.7%	5.65e-08	i	x
Nc1ccccc1C(=O)C[C@@H](N)C(=O)O	i	x	1.17e-08	i	-1.9%
CCOc1ncccc1C(=O)OCC(=O)c1cc(C)n(Cc2ccco2)c1C	i	2.2%	3.65e-08	i	u
COC(=O)[C@@]1(C)C=C[C@@H](Cc2ccccc2)N1C(C)=O	x	-1.6%	x	x	12.8%
CCOc1cccc(C(=O)Nc2nnc(-c3ccco3)s2)c1	x	2.4%	x	x	0.8%
CC(=O)Nc1ccc(NC(=O)c2ccco2)cc1	x	-0.3%	x	x	-0.6%
COc1cccc(CNCCSc2nnnn2C)c1	i	0.0%	2.46e-08	i	7.3%
COc1ccc(N2CC(C)Cn3c2nc2c3c(=O)n(Cc3ccc(F)cc3)c(=O)n2C)c(OC)c1 (stereo not drawn)	i	0.7%	3.6e-09	i	x
COc1ccc(S(=O)(=O)NCC(=O)N(CC(=O)NCC2CCCO2)c2cc(C)ccc2C)cc1 (stereo not drawn)	i	-2.2%	3.9e-09	i	-8.5%
O=C(c1ccc2c(=O)n(-c3ccccc3)c(=O)[nH]c2c1)N1CCCCC1	i	-2.2%	1.7e-09	i	6.6%
Cc1ccc(-c2nn3c(=O)c(C)nnc3s2)cc1	i	-2.4%	4.4e-09	i	5.8%
Cn1c(SCC(=O)Nc2cccc(F)c2)nnc1-c1cccnc1	x	2.8%	x	x	0.7%
COCCNC(=O)CCn1c(=O)oc2ccccc21	i	-0.5%	1e-09	i	1.4%
CC1(C)CC(=O)c2cnc(NC(=O)C3CCCC3)nc2C1	x	0.5%	x	x	11.3%
Cc1csc(CCc2nc(C)cs2)n1	i	-0.9%	3.98e-08	i	15.0%
O=C(Nc1ccc2c(c1)OCCO2)c1ccc(Br)o1	i	x	1.06e-08	i	x
CCCCN(c1ccccc1)c1ncnc2nc[nH]c12	x	-2.3%	x	x	-14.1%
CCOc1ccc2nc(NC(=O)CSc3nc4cccnc4n3C)sc2c1	i	-1.0%	2.17e-08	i	26.0%
O=C(O)c1nnsc1-c1ccc(-c2snnc2C(=O)O)cc1	i	0.6%[11.5 µM]	2.8e-09	i	-5.5%[11.4 µM]
CCOc1ccc(S(=O)(=O)n2ccc(C)n2)c2ccccc12	i	1.5%	3.3e-09	i	u
CCn1c(SCC(=O)Nc2nnc(C)s2)nc2c(c1=O)SC(C)C2 (stereo not drawn)	x	-1.8%	x	x	-5.8%
COCCCNC(=O)c1cn(Cc2c(F)cccc2Cl)nn1	i	1.1%	2.19e-08	i	-0.4%
CC1(C)CC(=O)C(C=NCc2ccc3c(c2)OCO3)=C(O)C1	i	0.8%	4.2e-09	i	5.5%
CCOC(=O)C1C(=O)NC(N2CCc3ccccc32)=NC1c1ccccc1 (stereo not drawn)	i	-2.8%	3.8e-09	i	u
O=C(O)CCNc1ccccc1C(=O)O	i	-0.8%[11.5 µM]	3.31e-08	i	-0.1%[11.4 µM]
O=C(OCCN1CCOCC1)c1ccc2c(c1)OCCO2	i	x	1e-09	i	x
Cc1cccc2sc(NC(=O)CNS(=O)(=O)c3ccc(Br)s3)nc12	i	0.7%	1e-09	i	1.2%
CC(=O)Nc1ccc(S(=O)(=O)N2CCN(c3cccc(C)c3C)CC2)cc1	x	-2.3%	x	x	-1.3%
Cc1ccc(C2/C(=C(/O)c3ccc(Br)cc3)C(=O)C(=O)N2Cc2ccco2)o1 (stereo not drawn)	x	1.3%	x	x	9.7%
Cc1cc(C(=O)OCC(=O)N2CCN(c3ccccc3)CC2)c2ccccc2n1	i	0.6%	3.8e-09	i	-2.1%
CC(=O)NC(N1CCCCC1)C(F)(F)C(F)(F)C(F)(F)C(F)F (stereo not drawn)	x	-2.3%	x	x	1.2%
CCOc1cccc(-c2nnc3sc(-c4cc(OC)c(OC)c(OC)c4)nn23)c1	i	x	1e-09	i	x
CC1(C)Cc2cccc(OCC(=O)O)c2O1	i	-1.0%	3.23e-08	i	4.2%
COC(=O)c1cc(OC)c(OC)cc1N	i	x	1e-09	i	x
Cc1ccc(N2CC(C(=O)N3CCCc4ccccc43)CC2=O)cc1 (stereo not drawn)	i	1.0%	1.42e-08	i	u
NS(=O)(=O)c1ccc(N=Nc2cc3ccccc3c(C(=O)O)c2O)cc1	i	-1.3%[11.5 µM]	3.77e-08	i	-26.3%[11.4 µM]
CCOC(=O)NC(=O)CSc1nc(C)cc(C(F)(F)F)c1C#N	i	2.1%	1e-09	i	u
C/C(N)=C(/C#N)C(=O)COC(=O)C(NS(=O)(=O)c1ccc(Cl)cc1)C(C)O (stereo not drawn)	i	0.1%	9.6e-09	i	-7.0%
O=C(CCSc1nnc(-c2ccncc2)o1)Nc1ccc(F)cc1	i	-1.7%	1e-09	i	0.3%
COc1cccc(-c2csc3nnc(SCC(=O)NCc4cccs4)n23)c1	i	-0.3%	1e-09	i	u
CCOC(=O)CCC(=O)Nc1ccccc1C(N)=O	x	-1.4%	x	x	8.4%[11.4 µM]
COc1ccc2[nH]cc(CCNc3ncncc3-c3ccccc3C)c2c1	i	5.2%	1.7e-09	i	u
CCOCCCNC(=O)c1c(-c2ccccc2)noc1C	i	-0.3%	1.62e-08	i	0.0%
CCOC(=O)O[C@]1(C(=O)COC(=O)CC)CC[C@@H]2[C@@H]3CCC4=CC(=O)C=C[C@@]4(C)[C@H]3[C@H](O)C[C@]21C	i	2.3%[25.7 µM]	1e-09	i	-3.1%[25.6 µM]
Nn1c(SCC(=O)Nc2ccc3c(c2)OCO3)nnc1C1CC1	i	-2.3%	1e-09	i	0.3%

Bioassay records (PubChem BioAssay)
